gsp antag: antagonizes gsp, the McCune-Albright syndrome mutation. 340,000 tested, 0.4% active. gsp-mutant cells, cAMP HTRF, 30 min; control for the full effect not named in the record. Potency, µM (doses to about 76.9 µM), without a hit: at the highest dose activity change, negative = inhibition, most hits filed as inhibitors; active = falling curve of any shape with a large fitted effect; inconclusive = falling curve, mostly with a smaller effect; inactive = flat or rising curve; cell line not stated here;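 note: intracellular cAMP measured with PDE inhibitor Ro 20-1724 present during compound exposure; potency is the fitted concentration of half-maximal effect; % is set by controls: 0 for no effect and ±100 for the full control effect; nearly all actives have a fitted effect of over 65% in size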
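Cells in G418 medium, seeded 16-24 h, 37C; buffer exchange to DPBS + 1 mM CaCl2, 0.5 mM MgCl2, 0.05% BSA; cpds in DMSO + […] (300 uM stock), 30 min 37C; HTRF cAMP detection.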
Menin-MLL FL inh: inhibitors of human menin-MLL interaction, wild-type MLL peptide; Fluorescence polarization, fluorescein-MLL peptide displacement from menin; FP activity change, % at 61.4 µM; 290,000 tested, under 10 active; AID 1766; inconclusive = falling polarisation curve, or a change in total fluorescence; inactive = total fluorescence flat and polarisation flat or rising; no compound was filed as active; the % refers to the polarisation; negative = inhibition;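 note: % of control where 0% means no effect; inhibitors lower the polarisation; unlabelled MLL peptide was the positive control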
D2 potentiator: positive allosteric modulators of human D2 dopamine receptor | 360,000 tested, 0.23% active | AID 624464 | potentiation, % (no concentration beside the values) | DiscoveRx D2 beta-arrestin cells, luminescence, 90 min; 100% = 57 uM dopamine signal | P14416; active = potentiation of 50% or more; inconclusive = 30% to 50%; inactive = 30% or less;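 note: compound concentration not given in the record; tested on top of an EC20 dose of dopamine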
Target sequence (P14416 whole entry, looked up): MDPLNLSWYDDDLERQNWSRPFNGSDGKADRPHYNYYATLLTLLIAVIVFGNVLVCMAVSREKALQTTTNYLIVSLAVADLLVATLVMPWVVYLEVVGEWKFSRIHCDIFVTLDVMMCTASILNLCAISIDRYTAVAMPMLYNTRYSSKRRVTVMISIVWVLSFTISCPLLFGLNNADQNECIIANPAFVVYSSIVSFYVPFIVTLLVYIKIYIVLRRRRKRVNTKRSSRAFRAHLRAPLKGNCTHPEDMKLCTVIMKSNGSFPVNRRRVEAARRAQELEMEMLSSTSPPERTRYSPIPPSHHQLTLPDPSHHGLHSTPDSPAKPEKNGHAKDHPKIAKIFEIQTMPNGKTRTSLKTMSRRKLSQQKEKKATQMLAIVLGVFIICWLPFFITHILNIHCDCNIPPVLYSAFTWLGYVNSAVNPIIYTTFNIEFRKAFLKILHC
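PathHunter beta-arrestin assay in DiscoveRx D2 cells. Compounds were added with an EC20 of dopamine (50 nM final) for 90 min at 37 deg C. Luminescence was read 1 h after detection reagent, with 57 uM dopamine as the EC100 control.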
gsp ag: agonists of gsp mutant (McCune-Albright syndrome); gsp mutant cells, cAMP HTRF, 30 min; control for the full effect not named in the record; Potency, µM (doses to about 76.9 µM), without a hit: at the highest dose activation (cAMP increase), actives largely listed as activators; 340,000 tested, 0.13% active; active = well fitted activation curve with a large enough effect; inconclusive = small, poorly fitted or top-dose-only effect, or another doubt; inactive = no such curve, though single readings can be large or run the other way; cell line not stated here;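 note: phosphodiesterase inhibitor Ro 20-1724 added with compounds to block cAMP breakdown; potency is the fitted concentration of half-maximal effect; nearly all actives have a fitted effect of over 60% in size; about a fifth of the inactives were tested at one dose only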
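Cells stably selected in G418 were plated at 2000/well, grown 16-24 hr, then given compounds in DMSO with the PDE inhibitor […] (300 uM solution added) for 30 min at 37C; cAMP was read by HTRF.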
ClpP mod: qHTS Assay for Activators of ClpP; ATP-dependent Clp protease proteolytic subunit (Bacillus subtilis (strain 168)), P80244; purified B. subtilis ClpP, FRET peptide cleavage, 20 min; AID 651965, 2013; 340,000 tested, 1.9% active; Potency, µM (highest dose often 57.5 µM), for inactives: at the highest dose activity change, negative = active; active = well fitted falling curve with a large enough effect; inconclusive = small, poorly fitted or top-dose-only effect; inactive = no such curve, though single readings can be large or run the other way; note: potency is the fitted concentration of half-maximal effect; the source files actives as falling curves though it sought activators and does not explain the sign; nearly all actives have a fitted effect of over 65% in size; many hits overshoot -100%
Target sequence (P80244 whole entry, looked up): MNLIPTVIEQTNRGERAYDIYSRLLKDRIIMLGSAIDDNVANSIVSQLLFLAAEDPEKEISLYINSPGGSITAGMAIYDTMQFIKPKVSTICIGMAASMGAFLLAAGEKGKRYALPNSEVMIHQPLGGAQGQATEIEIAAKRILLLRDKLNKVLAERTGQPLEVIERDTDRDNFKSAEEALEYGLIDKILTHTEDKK
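Buffer: 100 mM Tris/HCl pH8, 100 mM KCl, 0.05% low protease BSA, 2.5% glycerol, 0.01% Tween-20. ClpP 10 microg/mL final; 20 min RT; delta FRET normalized to ADEP and DMSO controls.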
TRPV1 potentiator: potentiators of human vanilloid receptor 1 (TRPV1); 320,000 tested, 0.02% active; AID 540277; Q8NER1; TRPV1-expressing cells, Fluo-8 calcium influx, capsaicin EC20 potentiation; host cell line not named in the record; control for the full effect not named in the record; potentiation, % at 8.33 µM; active means potentiation above 80%; inconclusive means 30% to 80%; inactive means below 30%; note: 0% is about no effect
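TRPV1-expressing cells were cultured overnight at 35.5C and loaded with Fluo-8 calcium dye for 40 to 90 min at room temperature. After a 10 s baseline, compound was added and calcium influx was read kinetically for 3 min (ex 480/em 520 nm).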
Sfp PPTase inh: blocks B. subtilis Sfp PPTase activity; Q9F4F7; 310,000 tested, 3.5% active; AID 1490; Potency, µM, without a hit: max response, negative = inhibition, most hits filed as inhibitors; Biochemical Sfp PPTase activity, qHTS; active = well fitted inhibition curve with a large enough effect; inconclusive = small, poorly fitted or top-dose-only effect, or another doubt; inactive = no such curve, though single readings can be large or run the other way;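 note: the enzyme is Sfp with the accession as filed and its product quenches rhodamine fluorescence; potency is the fitted concentration of half-maximal effect; 0% = enzyme reaction without inhibitor and -100% = no enzyme wells; top concentration of the series not given in the record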
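Step 1, compound plus 15 nM Sfp-PPTase, 15 min, room temperature. Step 2, add rhodamine-CoA (5 uM) and BHQ-2-YbbR (12.5 uM). Step 3, read 525/598 nm fluorescence at 0 and 30 min.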
Starred values were filed as active, the others as inactive; ? = inconclusive; / = not tested or not shown; [ ] = dose if it differs, or a comment.

SMILES	gsp antag	Menin-MLL FL inh	D2 potentiator	gsp ag	ClpP mod	TRPV1 potentiator	Sfp PPTase inh
Cc1cnc(NC(=O)c2ccc(OCC3CCCO3)cc2)s1 (stereo not given)	5.1%	3.1	0.9	11.2%[15.4 µM]	/	5.7	17.7%
Cc1ccc2ncccc2c1[N+](=O)[O-]	11.8%	-1.6	-0.5	6.8%[15.4 µM]	/	0.1	0.3%
Cc1cccc(NC(=O)Cn2nc(C(F)(F)F)cc2C2CC2)c1	-4.8%	0.9	-9.9	-36.5%[inhibitor]	1.6%	9.4	12.4%
CCOc1ccc(CNc2nnnn2C)cc1OC	11.3%	-7.1	0.0	7.3%[15.4 µM]	0.0%	-9.3	13.5%
O=c1[nH]c(SCc2ccc([N+](=O)[O-])cc2)nc2[nH]ncc12	2.6%	-0.7	4.7	-46.6%[inhibitor]	/	-44.5	10.7%
O=C(c1ccco1)N1CCCN(C(=O)c2ccco2)CC1	-7.5%	0.7	-2.0	3.4%	-1.3%	3.0	5.4%
O=C(O)CSc1nnc(Cn2cnc3ccccc32)n1CCc1ccccc1	?	-2.7	-2.7	0.0%	-2.3%	-18.7	-0.2%
CCOc1ccccc1NC(=O)C1=C(C)NC(=O)NC1c1cccs1 (stereo not given)	-4.1%	3.6	2.5	-49.6%	/	-12.6	-8.5%
C=CCNC(=O)c1ccc(N(Cc2ccccc2)S(C)(=O)=O)cc1	5.6%	4.0	-9.6	-0.9%	-2.5%	2.8	3.5%
Cc1ccc(NC2CCCN(C(=O)c3ccc(F)cc3)C2)cc1C (stereo not given)	-11.4%	/	-8.2	?	-2.9%	-18.6	-1.9%
COc1ccc(NS(=O)(=O)c2cccc(C(=O)N/N=C/c3c(F)c(F)c(F)c(F)c3F)c2)cc1	18.5%	/	0.4	-5.1%	18.4%	/	/
Cc1ccc(CNC(=O)Cn2ccc(NC(=O)OCc3ccccc3)nc2=O)o1	-0.7%	/	-4.7	-18.5%	-0.3%	-9.4	/
O=S(=O)(c1ccc(Cl)cc1)N1CCCC1c1nc2ccccc2s1 (stereo not given)	?	0.4	-22.5	2.4%	-0.5%	/	4.4%
CCCCCn1c(=N)c(S(=O)(=O)c2ccc(Cl)cc2)cc2c(=O)n3cccc(C)c3nc21	1.9%	?	-0.4	0.6%	/	-8.6	8.3%
CC(=O)c1ccc(N2CCN(C(=O)C3CCCN3S(=O)(=O)c3cccc4nsnc34)CC2)cc1 (stereo not given)	-5.5%	/	-3.9	0.8%	-4.4%	-4.4	9.1%
O=C(c1ccco1)N1CCN(CC(O)Cn2c3ccccc3c3ccccc32)CC1 (stereo not given)	-6.8%	0.9	-8.1	-2.0%	28.2µM*	1.6	-5.6%
Cc1cc(C)cc(OCCCCCNCCO)c1	3.9%	1.0	-14.2	1.8%	-1.3%	-12.6	-9.9%
COc1ccc(N(C)C(=O)c2cnc(N3CCN(c4ncccn4)CC3)c3ccccc23)cc1	?	1.8	-9.7	-31.5%[inhibitor]	1.4%	-4.6	15.7%
CCS(=O)(=O)N1CCN(Cc2c[nH]c3ccccc23)CC1	12.9%	-8.5	-2.0	2.4%[15.4 µM]	0.9%	2.7	-10.5%
COc1ccccc1-c1nnc(SCC(=O)c2ccc(C3CCCCC3)cc2)n1Cc1ccco1	-21.6%	3.2	-16.6	9.1%	1.1%	-1.9	?
CC(C)c1ccc(NC(=S)N2CCN(C)CC2)cc1	-12.2%	/	-14.6	14.6%	0.7%	-14.7	14.7%
Cc1ccc2oc(-c3ccc(NC(=O)c4cccnc4)cc3)nc2c1	-3.7%	1.3	5.2	-11.4%	51.3%	-3.2	7.2%
CCC(c1nnnn1Cc1ccccc1)N(Cc1ccco1)Cc1cc2cc(OC)ccc2[nH]c1=O (stereo not given)	-13.0%	-0.1	-9.3	-14.9%	-16.7%	-8.0	-21.7%
Cc1ccc(C(=O)NCC(=O)N2CCN(S(=O)(=O)c3cccs3)CC2)s1	-2.7%	2.4	-26.0	-8.3%[15.4 µM]	0.3%	1.6	6.5%
O=C(NC(NC(=S)Nc1ccc(Cl)cc1Cl)C(Cl)(Cl)Cl)c1cccc([N+](=O)[O-])c1 (stereo not given)	?	-1.9	-16.5	4.0%	-0.2%	2.8	15.1%
COc1ccc(C(=O)NC2CCN(CC(=O)NCc3cccc(OC)c3)CC2)cc1	0.5%	-2.1	-5.9	?	/	0.3	5.7%
CCOc1ccc(CN(C)C(=O)NNC(=O)c2ccc(C)cc2)cc1OC	2.4%	7.5	-3.6	?	/	-11.5	9.2%
C#CCO[C@@H]1C[C@H](n2cnc3c(=O)[nH]c(NC(=O)C(C)C)nc32)O[C@@H]1CO	-0.3%	3.6	5.0	/	-0.5%	-2.5	-0.3%
CCN(CC)CCCNC(=O)c1ccc(OCC(=O)Nc2ccccc2C(F)(F)F)c(OC)c1	0.5%	-1.6	-13.7	-30.5%[inhibitor]	/	6.7	-0.5%
CCOc1ccc(C(=O)NCC(=O)N2CCCC2)cc1	14.8%	-9.8	-4.5	-6.3%[15.4 µM]	/	-9.3	13.0%
CCN(Cc1cnn(C)c1)C(=O)C1CCC(=O)N(CCc2ccc(OC)cc2)C1 (stereo not given)	5.2%	/	-0.2	11.9%	-0.1%	2.1	6.1%
O=[N+]([O-])c1ccc(S(=O)(=O)N2CCSC2c2ccco2)cc1 (stereo not given)	7.4%	3.0	27.1	-5.8%	/	-5.6	39.8µM*
O=C(O)C1CCCCC1C(=O)Nc1cccc2ccccc12 (stereo not given)	2.9%	5.0	-1.1	-0.8%	-24.8%	10.7	1.7%
CCc1ccccc1NC(=S)N(CCN1CCCCC1)Cc1ccco1	-11.2%	-3.1	-16.7	11.4%[15.4 µM]	/	2.8	22.3%
CCN(CC(=O)Nc1c(F)cccc1F)C(=O)C1CC1C (stereo not given)	12.2%	/	-8.6	3.7%[15.4 µM]	/	1.0	/
CCCCN(C)C1CCN(C(=S)Nc2ccc(OC)cc2)CC1	6.1%	3.0	-8.1	1.8%	/	2.1	18.1%
OC(Cn1cncn1)c1ccc(Cl)cc1 (stereo not given)	10.5%	-0.9	1.2	-11.6%	4.7%	28.5	17.2%
Cc1ccc(NC(=O)c2ccc(S(=O)(=O)NCc3cccnc3)cc2)c(C)c1	0.5%	/	-6.2	-1.8%[15.4 µM]	-0.4%	-8.8	4.0%
Nc1cc(=O)nc(SCC(=O)N(C2CCCCC2)C2CCCCC2)n1-c1ccccc1	-6.9%	13.0	-7.8	10.5%	-1.1%	-8.3	-13.8%
CCN(CC)S(=O)(=O)c1ccc(Cl)c(C(=O)Nc2nncs2)c1	-0.1%	-0.4	-4.8	3.1%	-1.8%	?	-0.7%
O=C(Cn1ncc2c([nH]c3ccccc32)c1=O)N1CCN(c2ccccn2)CC1	8.8%	-1.2	-15.6	14.7%	?	1.5	6.1%
O=C(Nc1ncc(Cc2cccc(Cl)c2)s1)C1CCCO1 (stereo not given)	14.8%	3.0	-7.3	-9.8%	-0.4%	8.5	-0.8%
Cc1nc2c3cc(F)ccc3n(Cc3ccccc3)c2s1	11.6%	2.5	-0.5	18.4%	-0.1%	-1.2	-25.2%
CN(Cc1ccccc1)C(=O)c1ncn(C)c1C(=O)N(C)Cc1ccccc1	17.5%	/	-3.8	/	1.2%	-9.2	/
CC(C)[C@H](NC(=O)c1ccc(C(C)(C)C)cc1)C(=O)Nc1nnc(C2CC2)s1	-8.8%	1.6	-41.4	-8.1%[15.4 µM]	1.1%	-0.6	-4.7%

Arranged by SMILES length (descending): some entries from above.
SMILES	gsp antag	Menin-MLL FL inh	D2 potentiator	gsp ag	ClpP mod	TRPV1 potentiator	Sfp PPTase inh
O=C(Cn1ncc2c([nH]c3ccccc32)c1=O)N1CCN(c2ccccn2)CC1	8.8%	-1.2	-15.6	14.7%	?	1.5	6.1%
COc1ccc(C(=O)NC2CCN(CC(=O)NCc3cccc(OC)c3)CC2)cc1	0.5%	-2.1	-5.9	?	/	0.3	5.7%
Cc1ccc2ncccc2c1[N+](=O)[O-]	11.8%	-1.6	-0.5	6.8%[15.4 µM]	/	0.1	0.3%

(more compounds)
SMILES	gsp antag	Menin-MLL FL inh	D2 potentiator	gsp ag	ClpP mod	TRPV1 potentiator	Sfp PPTase inh
COc1cc(/C=N/NC(=O)CC23CC4CC(CC(C4)C2)C3)cc(Br)c1OCC(=O)N(C)C	-19.3%	4.0	24.7	13.5%	-2.8%	10.7	3.7%
Cc1cc(C)c2nc(Nc3nc(CSc4nc5ccccc5[nH]4)cc(=O)[nH]3)nc(C)c2c1	3.5%	/	5.7	0.6%[15.4 µM]	/	/	/
C=CCNC(=O)NC(=O)CN1C(=O)NC(c2ccccc2)(c2ccccc2)C1=O	4.4%	0.4	2.2	6.0%[15.4 µM]	/	2.7	21.7%
O=c1c(O)c(-c2cccs2)oc2ccc(Cl)cc12	17.8%	?	1.3	?	0.6%	-12.8	-0.3%
CC(C)NC(=O)Cn1cc(C(=O)C(=O)N2CCOCC2)c2ccccc21	9.2%	-1.2	-8.6	13.2%[15.4 µM]	1.6%	5.5	12.7%
O=C(CS(=O)(=O)c1cn(CC(=O)N2CCOCC2)c2ccccc12)NCc1ccc(F)cc1	0.6%	0.8	6.7	-20.4%	21.6%	4.6	7.2%
Cc1c(Cl)c([N+](=O)[O-])nn1CC(=O)NC12CC3CC(CC(C3)C1)C2	-2.5%	-0.7	3.0	27.4%	-1.1%	-15.0	7.8%

Filtered by structure: the compounds so far with a thiophene ring, fused or not (three)
SMILES	gsp antag	Menin-MLL FL inh	D2 potentiator	gsp ag	ClpP mod	TRPV1 potentiator	Sfp PPTase inh
CCOc1ccccc1NC(=O)C1=C(C)NC(=O)NC1c1cccs1 (stereo not given)	-4.1%	3.6	2.5	-49.6%	/	-12.6	-8.5%
Cc1ccc(C(=O)NCC(=O)N2CCN(S(=O)(=O)c3cccs3)CC2)s1	-2.7%	2.4	-26.0	-8.3%[15.4 µM]	0.3%	1.6	6.5%
O=c1c(O)c(-c2cccs2)oc2ccc(Cl)cc12	17.8%	?	1.3	?	0.6%	-12.8	-0.3%
